MLL AF4-AF9 inh – MLL-AF4/AF9 protein interaction inhibition | P42568 | AlphaScreen, biotin-AF4 peptide binding to FLAG-AF9 | inhibition, % at 10 µM | actives 0.47% (n = 350,000) | AID 651704;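 active = every replicate reaching a set inhibition limit, whatever the replicate mean, cut at about 25% in these data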;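 also: 0% = plate neutral control median and 100% = total signal loss; the record names both 10 and 1 µM as test concentration; the first replicate is given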
Target sequence (P42568 whole entry, looked up): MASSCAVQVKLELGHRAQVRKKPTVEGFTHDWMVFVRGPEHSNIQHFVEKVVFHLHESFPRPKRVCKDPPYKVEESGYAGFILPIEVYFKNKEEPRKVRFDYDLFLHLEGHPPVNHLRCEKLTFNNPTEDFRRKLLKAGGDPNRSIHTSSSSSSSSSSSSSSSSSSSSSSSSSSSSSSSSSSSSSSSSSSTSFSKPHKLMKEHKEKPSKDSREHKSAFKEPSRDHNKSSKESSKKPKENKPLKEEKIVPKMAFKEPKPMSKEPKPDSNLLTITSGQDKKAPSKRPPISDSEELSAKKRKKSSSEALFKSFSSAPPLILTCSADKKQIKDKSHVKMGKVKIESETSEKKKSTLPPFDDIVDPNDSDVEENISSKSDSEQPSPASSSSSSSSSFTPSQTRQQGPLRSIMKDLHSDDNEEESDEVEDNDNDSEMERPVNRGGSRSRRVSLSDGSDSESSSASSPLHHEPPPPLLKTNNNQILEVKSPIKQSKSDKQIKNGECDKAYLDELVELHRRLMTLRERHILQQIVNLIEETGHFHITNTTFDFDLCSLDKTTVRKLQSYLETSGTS
Ecoli rRNA inh – selective bacterial rRNA inhibition in E. coli. E. coli WT GFP vs humanized-ribosome RFP mutants, fluorescence, 24 h; hits give low values; DMSO median 0, no signal -100. actives 1.6% (n = 350,000). GFP signal change (wild-type ribosome), % (concentration not given with the values);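 active = significant combined selectivity score with lowered wild-type GFP, culture density cut under 30%, mutant RFP and density less affected; inactive = any of these conditions unmet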; also: one replicate is shown; some compounds called inactive have numbers as strong as hits
Ecoli rRNA inh OD600 – further read-out of Ecoli rRNA inh, marked with its call; OD600 change, %; measured here: OD600 growth;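 optical density of the mix in the first replicate; 0 = DMSO median and -100 = no signal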
Ecoli rRNA inh RFP – also measured in Ecoli rRNA inh; calls as there; RFP signal change, %; measured here: RFP humanized mutant strains;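 first replicate; 0 = DMSO median and -100 = no signal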
* = called active by the depositor; & = joins results of further samples.

SMILES	MLL AF4-AF9 inh	Ecoli rRNA inh	Ecoli rRNA inh OD600	Ecoli rRNA inh RFP
C[C@@H]1CN([C@@H](C)CO)C(=O)Cc2cc(NS(=O)(=O)c3cccs3)ccc2O[C@@H]1CN(C)CC1CCCCC1	0.1	0.7	-7.2	-2.0
O=C(Cc1ccncc1)NCC[C@H]1CC[C@@H](NC(=O)C2CCCCC2)[C@@H](CO)O1	-0.9	-2.7	1.4	-1.5
C[C@H]1CN([C@@H](C)CO)C(=O)CCCn2nncc2CO[C@H]1CN(C)C(=O)Nc1ccc2c(c1)OCO2	1.5&0.0	5.5&0.4	11.3&-2.1	-1.9&-0.8
N#C[C@H]1[C@H](c2ccccc2-c2ccccc2F)[C@H](CO)N1C(=O)C1CC1	5.2	-0.5	0.6	-2.1
CCC(=O)N(C)C[C@H]1Oc2cc(Br)ccc2S(=O)(=O)N([C@H](C)CO)C[C@@H]1C	-2.3	-0.7	2.5	0.4
Cc1noc(C)c1S(=O)(=O)Nc1ccc2c(c1)CC(=O)N([C@@H](C)CO)C[C@@H](C)[C@H](CN(C)S(=O)(=O)c1ccc(F)cc1)O2	-2.4	0.3	-4.3	-1.6
COc1ccc(CNC(=O)CC[C@H]2O[C@@H](n3cc(C)c(=O)[nH]c3=O)C[C@@H]2O)cc1	-4.8	9.3	5.6	-3.9
COc1cccc(-c2cn(CC[C@H]3CC[C@H](NC(=O)CN(C)C)[C@H](CO)O3)nn2)c1	-2.6	-0.8	-2.6	-0.7
C[C@H]1CN([C@@H](C)CO)S(=O)(=O)c2ccc(-c3ccc(F)cc3)cc2O[C@@H]1CN(C)S(C)(=O)=O	2.8	-7.9	-19.3	4.0
C[C@@H]1CN([C@H](C)CO)C(=O)c2cc(NC(=O)Nc3ccccc3)ccc2O[C@@H](C)CCCCO[C@@H]1CN(C)S(=O)(=O)c1cccs1	2.8	0.2	2.0	-0.5
Cc1ccc(S(=O)(=O)N(C)C[C@@H]2OCCCC[C@@H](C)Oc3ccc(NC(=O)CCC(F)(F)F)cc3C(=O)N([C@@H](C)CO)C[C@H]2C)cc1	1.4	-0.3	0.0	-0.4
Cc1cccc(CN2CCN(C3CN(Cc4cn(Cc5ccccc5C(F)(F)F)nn4)S(=O)(=O)C3)CC2)c1 (configuration not stated)	3.0	-1.9	-2.7	3.1
Cc1ccc(S(=O)(=O)Nc2cccc3c2O[C@@H](CN(C)Cc2ccc4c(c2)OCO4)[C@H](C)CN([C@@H](C)CO)C3=O)cc1	-3.4	-2.4	1.6	-0.8
Cc1ccc(S(=O)(=O)N(C)C[C@H]2Oc3ccc(NC(=O)NC4CCCCC4)cc3C(=O)N([C@H](C)CO)C[C@H]2C)cc1	0.8	-7.1	-18.5	-3.1
CCCc1cc(CN2CCOCC2)c(O)c(CN2CCOCC2)c1O	5.9	-7.5	16.6	1.4
C[C@H]1CN([C@@H](C)CO)C(=O)Cc2cc(NS(C)(=O)=O)ccc2O[C@@H]1CN(C)C(=O)Nc1ccc2c(c1)OCO2	-13.4	-0.1	-5.4	-2.1
COC(=O)[C@]12C[C@H](CC(=O)NCc3cccc(C(F)(F)F)c3)C(=O)N(Cc3ccccc3)C1=C[C@H](C1CCCC1)O[C@@H]2C	-2.9	-0.2	-6.0	-1.4
CN(C)C(=O)c1cccc(-c2ccc([C@H]3[C@@H](CO)N4C(=O)CN(C(=O)C5CCCCC5)C[C@@H]34)cc2)c1	-4.1	-11.6	-25.2	-6.0
COc1cc(C(=O)Nc2cc(S(=O)(=O)N3CCOCC3)ccc2N2CCOCC2)cc(OC)c1C	6.0	-4.4	-6.3	5.2
CCNC(=O)C[C@@H]1C=C[C@H](NC(=O)NC2CCCCC2)[C@H](CO)O1	-3.4	3.6	-0.9	-1.8
COCC(=O)N1C[C@@H](C)[C@@H](OC)CN(C)C(=O)c2cc(NC(=O)c3cnccn3)ccc2OC[C@@H]1C	0.2	-0.1	2.5	-2.4
C[C@@H]1CCCCO[C@@H](CN(C)Cc2ccc(C(F)(F)F)cc2)[C@@H](C)CN([C@@H](C)CO)C(=O)c2cc(NC(=O)c3ccccc3)ccc2O1	-2.0	3.5	-0.4	0.0
CC(C)(C)NC(=O)C(CCc1ccccc1)n1c(=O)c(-c2cc3ccccc3[nH]2)nc2ccccc21 (configuration not stated)	-50.9	5.5	2.2	16.3
Cc1ccccc1S(=O)(=O)N1CCCCN2[C@@H](CO)[C@@H](c3ccc(-c4cccnc4)cc3)[C@@H]2C1	6.2	-14.6	-30.8	20.0
COc1ccc(-c2ccc([C@H]3[C@@H](CO)N4C(=O)CN(C(=O)NC(C)C)C[C@@H]34)cc2)cc1	-16.3	3.1	7.9	2.4
Remaining list, next part:
SMILES	MLL AF4-AF9 inh	Ecoli rRNA inh	Ecoli rRNA inh OD600	Ecoli rRNA inh RFP
C[C@H]1CN([C@@H](C)CO)C(=O)Cc2cc(NC(=O)NC3CCCCC3)ccc2O[C@@H]1CN(C)S(=O)(=O)c1ccccc1	-0.5	0.7	-3.7	0.6
C[C@H](CO)N1C[C@H](C)[C@@H](CN(C)S(=O)(=O)c2ccc(F)cc2)Oc2cc(C3=CCCCC3)ccc2S1(=O)=O	-1.3	7.5	9.3	-3.0
C[C@@H]1CCCCO[C@@H](CN(C)Cc2ccc3c(c2)OCO3)[C@@H](C)CN([C@H](C)CO)C(=O)c2cc(NC(=O)CCCCCC(=O)Nc3ccccc3N)ccc2O1	0.5	1.3	-2.3	-0.4
C[C@H](CO)N1C[C@H](C)[C@H](CN(C)S(=O)(=O)c2ccc(F)cc2)OCCCC[C@H](C)Oc2ccc(NS(C)(=O)=O)cc2C1=O	-0.2	-5.9	-13.8	1.8
COc1ccc(C#Cc2cnc3c(c2)C(=O)N([C@H](C)CO)C[C@@H](C)[C@@H](CN(C)C)O3)cc1	4.8	3.0	5.2	-2.7
C[C@H](NC(=O)C[C@H]1C[C@@H]2c3cc(NS(C)(=O)=O)ccc3O[C@@H]2[C@H](CO)O1)c1ccccc1	-2.7	2.8	3.7	-0.9
C[C@@H]1CN([C@H](C)CO)C(=O)CCCn2cc(nn2)CO[C@H]1CN(C)CC1CCCCC1	-6.6	3.7	0.2	-0.6
CCNC(=O)[C@H]1[C@H](CO)[C@H]2Cn3c(cccc3=O)[C@@H]1N2C(=O)Nc1cc(F)ccc1F	-2.7	-0.7	4.1	-0.6
O=C(C[C@H]1CC[C@@H](NC(=O)Nc2ccc3c(c2)OCO3)[C@@H](CO)O1)NCc1ccc(Cl)cc1	3.6	-7.0	-8.5	0.4
O=C1CN(S(=O)(=O)c2ccccc2)C[C@@H]2[C@@H](c3ccc(Br)cc3)[C@H](CO)N12	-4.0	-2.0	-8.3	-2.8
CCCC#Cc1ccc([C@@H]2[C@@H](CO)N(C(=O)C3CCCC3)[C@H]2C#N)cc1	-1.9	1.7	2.3	-1.0
C=CS(=O)(=O)N(Cc1ccccc1)[C@H](CO)CC(C)C	0.2	6.6	-1.9	-1.7
CO[C@H]1CN(C)C(=O)c2cc(NC(=O)c3nc4ccccc4s3)ccc2OC[C@H](C)N(Cc2cccnc2)C[C@H]1C	1.1	-8.1	-23.4	25.4
COc1ccc(S(=O)(=O)N(C)C[C@H]2Oc3ccc(NS(C)(=O)=O)cc3C(=O)N([C@@H](C)CO)C[C@@H]2C)cc1	-1.3	-2.3	-5.4	-2.2
CCC(c1nnnn1-c1c(C)cccc1C)N1CCN(C/C=C/c2ccccc2)CC1 (configuration not stated)	11.0	-26.0	-70.2	-8.4
C[C@@H]1CN([C@@H](C)CO)C(=O)c2cc(-c3cncnc3)cnc2O[C@@H]1CN(C)C(=O)Cc1ccccc1	-8.3	5.7	2.3	-1.3
Cc1ccc(C(NC(=O)C2CCN(CCOc3ccc(Cl)cc3)CC2)c2ccccn2)cc1 (configuration not stated)	1.7	-45.2	-73.3	-11.4
CC(C)NC(=O)Nc1ccc2c(c1)C(=O)N([C@@H](C)CO)C[C@@H](C)[C@H](CN(C)C(=O)Nc1ccc(C(F)(F)F)cc1)O2	-1.8	-11.3	-7.3	-0.2
O=C(C[C@H]1C[C@@H]2c3cc(NC(=O)Nc4ccccc4F)ccc3O[C@@H]2[C@@H](CO)O1)NCC1CC1	3.7	-4.2	-9.8	3.7
Cc1ccc(S(=O)(=O)N(C)C[C@@H]2Oc3ccc(NC(=O)Nc4c(C)noc4C)cc3C(=O)N([C@@H](C)CO)C[C@H]2C)cc1	-12.9	-0.8	2.1	-1.0
O=C(c1ccc2c(c1)OCO2)N1CC(=O)N2[C@H](CO)[C@@H](c3ccc(C#CCC4CCCC4)cc3)[C@H]2C1	6.7	-6.9	-27.3	21.8
O=C(CN1CCOCC1)N[C@H]1CC[C@H](CCn2cc(C3CCCCC3)nn2)O[C@H]1CO	-0.6	2.0	5.4	0.1
O=C(NCC1CC1)[C@@H]1[C@@H](CO)[C@@H]2Cn3c(cccc3=O)[C@H]1N2C(=O)c1cccnc1	-5.3	6.0	10.3	-3.3
COc1cccc(Oc2c(C)oc3c(CN4CCOCC4)c(O)ccc3c2=O)c1	-1.9	7.3	10.4	1.5
CCNC(=O)C[C@H]1CC[C@@H]2[C@H](COc3ccc(NC(=O)c4cccs4)cc3C(=O)N2C)O1	0.3	0.0	1.0	-2.8
CN1c2ccc(-c3cccc(C#N)c3)cc2[C@@H]2[C@@H](CCN2C(=O)NC2CCCC2)[C@@H]1CO	12.0	-9.0	-31.0	8.6
C[C@H]1CN([C@@H](C)CO)C(=O)c2cc(NS(C)(=O)=O)ccc2O[C@@H]1CN(C)Cc1ccc2c(c1)OCO2	-9.4	-2.1	-9.6	-1.9
Cc1noc(C)c1S(=O)(=O)Nc1ccc2c(c1)C(=O)N([C@@H](C)CO)C[C@@H](C)[C@@H](CN(C)S(=O)(=O)c1c(C)noc1C)OCCCC[C@@H](C)O2	-6.7	0.3	-0.2	0.7
O=C(Cc1cccnc1)N1CC(=O)N2[C@H](CO)[C@H](c3ccc(C4=CCCCC4)cc3)[C@@H]2C1	-0.1	-1.4	-1.0	-0.5
C[C@H](O)C#Cc1ccc2c(c1)O[C@H](CN(C)C(=O)C1CCCCC1)[C@H](C)CN([C@H](C)CO)S2(=O)=O	2.1	4.7	8.6	-1.7

A different layout for part of the listing above.
Order of results: MLL AF4-AF9 inh | Ecoli rRNA inh | Ecoli rRNA inh OD600 | Ecoli rRNA inh RFP
- O=C(C[C@H]1C[C@@H]2c3cc(NC(=O)Nc4ccccc4F)ccc3O[C@@H]2[C@@H](CO)O1)NCC1CC1
 : 3.7 | -4.2 | -9.8 | 3.7
- Cc1ccc(S(=O)(=O)N(C)C[C@@H]2Oc3ccc(NC(=O)Nc4c(C)noc4C)cc3C(=O)N([C@@H](C)CO)C[C@H]2C)cc1
 : -12.9 | -0.8 | 2.1 | -1.0
- O=C(c1ccc2c(c1)OCO2)N1CC(=O)N2[C@H](CO)[C@@H](c3ccc(C#CCC4CCCC4)cc3)[C@H]2C1
 : 6.7 | -6.9 | -27.3 | 21.8
- O=C(CN1CCOCC1)N[C@H]1CC[C@H](CCn2cc(C3CCCCC3)nn2)O[C@H]1CO
 : -0.6 | 2.0 | 5.4 | 0.1
- O=C(NCC1CC1)[C@@H]1[C@@H](CO)[C@@H]2Cn3c(cccc3=O)[C@H]1N2C(=O)c1cccnc1
 : -5.3 | 6.0 | 10.3 | -3.3
- COc1cccc(Oc2c(C)oc3c(CN4CCOCC4)c(O)ccc3c2=O)c1
 : -1.9 | 7.3 | 10.4 | 1.5
- CCNC(=O)C[C@H]1CC[C@@H]2[C@H](COc3ccc(NC(=O)c4cccs4)cc3C(=O)N2C)O1
 : 0.3 | 0.0 | 1.0 | -2.8
- CN1c2ccc(-c3cccc(C#N)c3)cc2[C@@H]2[C@@H](CCN2C(=O)NC2CCCC2)[C@@H]1CO
 : 12.0 | -9.0 | -31.0 | 8.6
- C[C@H]1CN([C@@H](C)CO)C(=O)c2cc(NS(C)(=O)=O)ccc2O[C@@H]1CN(C)Cc1ccc2c(c1)OCO2
 : -9.4 | -2.1 | -9.6 | -1.9
- Cc1noc(C)c1S(=O)(=O)Nc1ccc2c(c1)C(=O)N([C@@H](C)CO)C[C@@H](C)[C@@H](CN(C)S(=O)(=O)c1c(C)noc1C)OCCCC[C@@H](C)O2
 : -6.7 | 0.3 | -0.2 | 0.7
- O=C(Cc1cccnc1)N1CC(=O)N2[C@H](CO)[C@H](c3ccc(C4=CCCCC4)cc3)[C@@H]2C1
 : -0.1 | -1.4 | -1.0 | -0.5
- C[C@H](O)C#Cc1ccc2c(c1)O[C@H](CN(C)C(=O)C1CCCCC1)[C@H](C)CN([C@H](C)CO)S2(=O)=O
 : 2.1 | 4.7 | 8.6 | -1.7

Random excerpt: 2 compounds from above, in no set order.
SMILES	MLL AF4-AF9 inh	Ecoli rRNA inh	Ecoli rRNA inh OD600	Ecoli rRNA inh RFP
O=C(c1ccc2c(c1)OCO2)N1CC(=O)N2[C@H](CO)[C@@H](c3ccc(C#CCC4CCCC4)cc3)[C@H]2C1	6.7	-6.9	-27.3	21.8
CCNC(=O)[C@H]1[C@H](CO)[C@H]2Cn3c(cccc3=O)[C@@H]1N2C(=O)Nc1cc(F)ccc1F	-2.7	-0.7	4.1	-0.6

Source: PubChem

Only part of the results is shown (hit frequency here may not be typical).
